SENP8 block-1 – SENP8 (human) protease inhibition. AID 602440. Q96LD8. 360,000 compounds, 0.64% hits. recombinant SENP8, Nedd8 substrate fluorescence. inhibition, % at 20 µM; in the data active means inhibition mostly above about 40%, no sharp cut-off; inactive means mostly below about 27%
SENP6 inh – blocks the human protease SENP6. Q9GZR1. inhibition, % at 10 µM. 330,000 compounds, 1.8% hits. AID 2599. Recombinant SENP6 catalytic domain, aminoluciferin luminescence;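 active means inhibition above about 50% at the single tested dose, limit read from the data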;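 further: plate controls were DMSO wells with enzyme for no effect and DMSO wells lacking enzyme for full effect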
Target sequence (Q9GZR1 628-1112 limits assumed): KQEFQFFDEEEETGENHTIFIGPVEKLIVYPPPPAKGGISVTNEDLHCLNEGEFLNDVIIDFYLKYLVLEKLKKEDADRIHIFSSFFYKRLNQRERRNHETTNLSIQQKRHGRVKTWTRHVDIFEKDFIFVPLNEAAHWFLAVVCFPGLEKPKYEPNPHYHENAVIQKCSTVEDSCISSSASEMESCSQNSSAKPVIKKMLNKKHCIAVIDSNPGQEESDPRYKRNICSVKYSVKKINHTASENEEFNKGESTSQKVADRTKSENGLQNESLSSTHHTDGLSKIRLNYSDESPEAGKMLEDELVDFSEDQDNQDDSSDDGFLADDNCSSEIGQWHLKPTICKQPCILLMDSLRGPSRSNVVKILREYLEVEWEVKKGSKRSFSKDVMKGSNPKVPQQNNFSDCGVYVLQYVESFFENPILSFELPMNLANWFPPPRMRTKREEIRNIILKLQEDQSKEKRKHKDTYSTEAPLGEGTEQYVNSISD
PfG6PD inh – PfG6PD (Plasmodium falciparum) enzyme inhibition | 350,000 compounds, 0.78% hits | PfGluPho enzyme, NADPH resazurin-diaphorase fluorescence | AID 504690 | inhibition, % at 20 µM;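 active means inhibition reaching at least a set limit at 20 µM in the primary screen, cut at about 59% in these data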;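 further: 0% = DMSO wells with substrate and 100% = DMSO wells lacking glucose-6-phosphate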
SENP1 FRET inh – SENP1 (human) catalytic domain inhibition. Q9P0U3. recombinant SENP1 catalytic domain, CyPet-SUMO1-YPet FRET cleavage. inhibition, % at 10 µM. 360,000 compounds, 0.21% hits. AID 624204;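 active means inhibition at least 30% at 10 µM, raw YFP signal under a set limit, fluorescence ratio 0.5 to 1.5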;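 further: 0% = enzyme with DMSO and 100% = no enzyme wells; some results filed as inactive read as strong as hits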
Target sequence (Q9P0U3 419-644 limits assumed): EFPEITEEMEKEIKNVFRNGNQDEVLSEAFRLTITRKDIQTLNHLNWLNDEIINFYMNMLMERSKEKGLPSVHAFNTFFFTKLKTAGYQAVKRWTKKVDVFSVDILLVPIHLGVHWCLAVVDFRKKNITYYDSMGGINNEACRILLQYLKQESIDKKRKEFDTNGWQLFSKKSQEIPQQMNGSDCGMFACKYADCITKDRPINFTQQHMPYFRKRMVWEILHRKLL
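Compound: 10 µM single point, 0.5% DMSO; Test system: hSENP1 catalytic domain, recombinant; Timing: 50 min reaction at room temperature; Technique: FRET, CFP and YFP emission; Control set: no-enzyme wells low, DMSO-plus-enzyme wells high control.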
HKDC1 inhibitor – inhibitors of human hexokinase HKDC1; AID 493160; recombinant HKDC1, G6PDH/diaphorase resazurin coupled fluorescence; 340,000 compounds, 0.16% hits; inhibition, % at 20 µM;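 active means inhibition above about 35% when tested at 20 µM, limit read from the data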;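 further: plate controls were DMSO wells with enzyme for no effect and DMSO wells lacking enzyme for full effect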
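Assay system: recombinant HKDC1 hexokinase; detection: coupled resazurin fluorescence, excitation 525 nm, emission 613 nm; benchmarks: DMSO-plus-enzyme-mix negative control, buffer-substituted positive control; compound dosing: single 20 µM dose; schedule: 90 min at room temperature in dark; also added: glucose plus 1 mM ATP as hexokinase substrates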
SENP8 block-2 – SENP8 protease inhibition; purified SENP8, Z-RLRGG-aminoluciferin cleavage, luminescence; inhibition, % at 10 µM; 330,000 compounds, 1.2% hits; AID 2540; in the data active means inhibition above about 50%
SENP7 block – blocks the human protease SENP7; Q9BQF6; recombinant SENP7, Z-RLRGG-aminoluciferin luminescence, 40 min; inhibition, % at 5 µM; 330,000 compounds, 1.5% hits; AID 434973;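 active means inhibition above about 50% at the single test dose, limit read from the data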;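 further: plate controls were DMSO with enzyme for no effect and no enzyme buffer wells for full effect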
Target sequence (Q9BQF6 706-1050 limits assumed): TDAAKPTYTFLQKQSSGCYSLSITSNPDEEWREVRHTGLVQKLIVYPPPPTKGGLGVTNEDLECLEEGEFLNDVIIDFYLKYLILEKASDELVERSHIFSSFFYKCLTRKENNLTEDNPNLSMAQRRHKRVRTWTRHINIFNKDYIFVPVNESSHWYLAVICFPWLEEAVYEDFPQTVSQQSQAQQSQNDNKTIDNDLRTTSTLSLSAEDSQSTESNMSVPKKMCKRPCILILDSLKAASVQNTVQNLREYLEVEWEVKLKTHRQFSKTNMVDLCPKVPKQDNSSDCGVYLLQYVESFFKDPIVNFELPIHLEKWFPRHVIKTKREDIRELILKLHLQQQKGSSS
NALP3 yeast inh – inhibitors of NALP3 inflammasome in yeast | Yeast reconstituted NLRP3/ASC/caspase-1, beta-gal luminescence, 24 h | inhibition, % at 10 µM | 330,000 compounds, 0.39% hits | AID 2825;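 active means inhibition of 50% or more; inactive means inhibition below 50%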;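 further: plate controls were induced DMSO wells for no effect and uninduced yeast grown without galactose for full effect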
Numbers without * were called inactive; i = inactive; x = not tested or not shown. These rows are one share of the data; count on the stated rates, not on these rows.

Start of the data: the first five records as a preview:
SMILES	SENP8 block-1	SENP6 inh	PfG6PD inh	SENP1 FRET inh	HKDC1 inhibitor	SENP8 block-2	SENP7 block	NALP3 yeast inh
CC(CS(=O)(=O)c1ccc2c(c1)NC(=O)CS2)C(=O)N1CCN(c2cccc(Cl)c2)CC1 (stereo unspecified)	9.3	-15.0	5.0	4.2	1.3	-5.7	11.5	10.8
Nc1c(NCc2ccccc2F)c(=O)[nH]c(=O)n1Cc1ccccc1	-53.5	-18.0	35.7	-35.9	-2.4	-6.0	1.2	19.3
N#CC1=C(N)C(C#N)(C#N)C(c2cccnc2)C2CCCC=C12 (stereo unspecified)	x	15.0	x	x	x	3.3	2.0	10.5
CCN(CC)c1nc2cc(OC)ccc2cc1C#N	i	-7.0	-12.7	-19.6	4.0	3.4	-2.6	-11.4
Cc1ccc2cc(C#N)c(N3CCCN(S(=O)(=O)c4ccccc4)CC3)nc2c1	-251.8	-1.3	9.4	-33.4	8.7	-4.4	-12.7	19.8

The list itself, repeating the preview:
SMILES	SENP8 block-1	SENP6 inh	PfG6PD inh	SENP1 FRET inh	HKDC1 inhibitor	SENP8 block-2	SENP7 block	NALP3 yeast inh
CC(CS(=O)(=O)c1ccc2c(c1)NC(=O)CS2)C(=O)N1CCN(c2cccc(Cl)c2)CC1 (stereo unspecified)	9.3	-15.0	5.0	4.2	1.3	-5.7	11.5	10.8
Nc1c(NCc2ccccc2F)c(=O)[nH]c(=O)n1Cc1ccccc1	-53.5	-18.0	35.7	-35.9	-2.4	-6.0	1.2	19.3
N#CC1=C(N)C(C#N)(C#N)C(c2cccnc2)C2CCCC=C12 (stereo unspecified)	x	15.0	x	x	x	3.3	2.0	10.5
CCN(CC)c1nc2cc(OC)ccc2cc1C#N	i	-7.0	-12.7	-19.6	4.0	3.4	-2.6	-11.4
Cc1ccc2cc(C#N)c(N3CCCN(S(=O)(=O)c4ccccc4)CC3)nc2c1	-251.8	-1.3	9.4	-33.4	8.7	-4.4	-12.7	19.8
COc1ccc(-c2cc(C(F)F)n3ncc(C(=O)N4CCN(C(=O)c5ccco5)CC4)c3n2)cc1	-395.8	-4.3	-2.9	-58.5	-3.1	4.7	-4.1	6.4
COc1ccc(OCc2cc(C(=O)NC3CCOC(C)(C)C3)no2)c2ccccc12 (stereo unspecified)	-21.2	46.7	x	-8.3	x	14.5	15.2	14.5
COc1ccc2nc(SCC(=O)N3CCCCCC3)c(C#N)cc2c1	-208.0	-9.2	28.8	-31.3	24.4	-8.4	-8.0	-3.1
Cn1c(=O)c2nc(NCc3ccccc3)cnc2n(C)c1=O	-270.3	-21.6	16.3	-21.2	-4.9	-7.3	-2.7	24.3
N=c1c(S(=O)(=O)c2ccccc2)cc2c(=O)n3ccccc3nc2n1Cc1ccco1	-478.0	-8.3	14.7	-17.9	4.9	-1.4	-7.5	0.0
CCCCN(C)c1nc(-c2ccco2)c2c(c1C#N)CC(C)(C)OC2	-290.7	-16.1	22.5	-20.7	13.9	9.1	2.1	2.5
COc1ccc(/C=C/C(O)=C2/C(=O)N(C)C3(C)CC2c2ccccc2O3)cc1 (stereo unspecified)	-358.0	-2.6	16.5	-20.0	7.6	7.2	8.9	21.2
O=c1oc2c3c4c(cc2c2c1CCC2)OCCN4CCC3	i	-0.5	38.4	-20.6	12.3	3.3	-3.7	6.3
Cc1c(C)c2cc(Cl)c(O)c(CN(C)C)c2oc1=O	-301.1	16.9	3.8	-131.7	-3.0	-6.4	-3.5	-9.1
CCOCCOC(=O)C1=C(C)NC2=C(C(=O)CC(c3cccs3)C2)C1c1ccsc1 (stereo unspecified)	-284.0	-12.8	-2.2	-41.6	-2.0	-0.2	-1.5	2.1
CC(C)C(=O)Nc1ccccc1N1CCN(S(C)(=O)=O)CC1	-3.2	-1.6	8.3	-13.8	-4.7	-0.6	7.9	-6.2
CCC1(c2ccccc2)C(=O)NCNC1=O	1.2	1.2	-8.6	-0.6	-2.7	4.7	4.2	7.9
CCc1cc2c(=O)c(Oc3ccccc3F)c(C)oc2c(CN(C)C)c1O	-251.8	-1.7	-8.6	-1.7	-2.5	-12.2	-10.3	-3.1
C=CCn1c(NC(=O)c2ccc(C)cc2)c(C#N)sc1=N	-443.0	3.0	15.8	-9.2	-1.4	0.2	6.7	19.2
Cc1ccccc1C(=O)OCn1nnc2ccccc2c1=O	7.9	32.2	0.3	0.2	2.8	9.0	4.8	25.2
O=C(NCc1ccco1)c1c2c(nc3ccccc13)CCC2	-193.1	-32.0	9.9	-67.3	5.9	-10.5	-10.5	2.3
CN(C)c1ccc(NC(=O)c2cc3c(=O)n4ccccc4nc3n2C)cc1	-331.4	11.1	61.6*	-24.8	10.7	14.6	1.2	32.1
O=C1Nc2ccc(S(=O)(=O)NCc3ccccn3)c3cccc1c23	-488.7	-22.8	14.2	-21.8	7.2	-5.7	-9.3	-1.3
CC(=O)C1=C(C)NC(SCC(=O)c2ccc(Cl)cc2Cl)=C(C#N)C1c1ccco1 (stereo unspecified)	2.0	9.4	16.0	-26.8	8.1	0.1	-8.3	12.0
CCOC(=O)Cn1c(CN2CCN(c3cccc(Cl)c3)CC2)nc2c1c(=O)[nH]c(=O)n2C	9.1	-8.4	8.4	2.4	-3.1	1.6	9.2	3.9
CN1c2ccccc2-c2nc3ccccc3n2C1c1ccccn1 (stereo unspecified)	i	-8.8	11.6	-19.4	6.6	-5.8	2.9	-5.6
CCn1nc(NC(=O)c2ccco2)c2cc3ccc(C)cc3nc21	-412.1	20.6	6.8	-25.1	8.9	-0.2	8.0	11.5
COCCn1c(=S)[nH]c2ccc(N(C)C)cc2c1=O	-240.9	-3.0	35.9	-19.4	3.7	-6.2	-4.5	5.7
Cc1c(NC(=O)CN2C(=O)c3cccc4cccc2c34)c(=O)n(-c2ccccc2)n1C	-78.8	-8.1	-17.1	-7.2	-2.0	5.1	4.3	1.1
CCOC(=O)Cc1c(C)c2c(O)cc(O)cc2oc1=O	-297.0	-4.0	-19.2	-44.4	7.8	-0.8	2.7	-14.2
CCCCOC(=O)Nc1ccc(C(=O)OC)cc1	3.2	-9.6	-1.9	0.1	11.0	-0.6	0.7	41.3
COc1ccc(C2C(C(C)=O)=C(C)N=c3s/c(=C\c4ccc5c(c4)OCO5)c(=O)n32)c(OC)c1 (stereo unspecified)	27.5	-10.4	3.1	19.2	6.3	-6.8	-12.7	26.2
CCOC(=O)Cn1nnnc1C(CC)N(Cc1cc2ccc(C)cc2[nH]c1=O)C1CCCC1 (stereo unspecified)	-21.5	-12.0	7.4	0.3	-1.4	-8.3	-12.3	12.1
C=CCn1c(=S)[nH]c2ccc(Br)cc2c1=O	23.2	-14.7	-15.0	2.7	0.7	-3.7	-2.7	-23.1
CCOC(=O)c1cc2ccc(OC(=O)c3ccco3)cc2oc1=O	-307.8	56.1*	-9.4	-20.4	-5.2	35.9	63.1*	-25.1
O=c1[nH]c(=O)n(C2C[C@H](O)[C@@H](CO)O2)cc1C(F)(F)F (stereo partly specified)	18.3	-12.0	-14.1	0.7	-1.5	-1.9	1.8	13.6
O=C(CN1c2cccc3cccc(c23)S1(=O)=O)N1CCOCC1	-273.4	-4.0	-8.5	2.0	13.6	-5.7	-9.5	5.0
CCCN1C2=C(C(=O)CCC2)C(c2ccc(O)c(Br)c2)C2=C1CCCC2=O	-296.5	-6.9	19.6	-20.8	12.5	3.3	-8.1	6.5
CCCOc1ccc(C2C(C(=O)OC)=CN(CCOC)C=C2C(=O)OC)cc1	-398.1	0.2	-7.8	-165.7	-2.6	2.6	-0.2	4.8
O=C(c1ccco1)N1CCN(c2c(-c3ccccc3)c3cc(Cl)ccc3[nH]c2=O)CC1	-208.1	-14.6	-0.9	-3.3	2.4	-1.5	15.6	16.8
O=c1cc(-c2ccccc2)c2ccc(O)c(CN3CCCCC3)c2o1	-312.0	-3.0	-1.6	-22.1	7.2	0.5	-4.7	14.2
Fc1ccc2nc3[nH]c4ccccc4c3nc2c1	-211.2	73.6*	47.9	-57.8	3.2	47.2	73.7*	10.4
O=C(NCCc1cn2ccsc2n1)c1cccs1	7.3	-0.3	-6.5	-40.3	-4.2	1.8	-3.8	-4.6
Oc1ccc(C=Nc2cccc3ncccc23)c(O)c1	22.9	91.2*	16.2	-35.3	18.3	44.1	46.1	-25.2
CCCCn1c(SCC(=O)NCC2CCCO2)nc2ccc(N3CCOCC3)cc2c1=O (stereo unspecified)	-302.8	9.4	-3.7	-45.3	-0.7	-2.9	10.5	-0.3
CCCCNC(=O)c1cc2c(=O)n3cccc(C)c3nc2n(CCN2CCOCC2)c1=N	-418.8	-6.2	10.0	8.5	-0.1	-7.8	-4.9	27.7
CCOc1ccc(CC(=O)N2CCN(c3ccc(N4CCOCC4)nn3)CC2)cc1OCC	-423.0	1.2	-1.0	-31.4	-3.3	4.1	-0.2	14.7
Cc1cc(C)c2cc(C#N)c(NCCCNC(=O)CCC(=O)O)nc2c1	-303.1	-0.2	-9.1	-122.5	-5.7	-0.6	-3.1	11.2
Cc1cc(=O)oc(C)c1C(=O)Nc1cnc2ccccc2c1	-43.9	1.9	2.0	-22.7	-1.2	6.5	2.5	-11.6
CCN1c2ccccc2-c2nc3ccccc3n2C1c1ccccn1 (stereo unspecified)	-409.0	17.6	15.3	-14.6	-11.1	5.9	3.2	14.7
COCCNC(=O)c1c(N)n(-c2cccc(C)c2)c2nc3ccccc3nc12	-403.6	13.5	17.5	-26.5	9.7	9.8	9.3	6.3
O=c1oc2c(CN3CCOCC3)c(O)ccc2c2c1CCC2	-289.5	-20.8	15.3	-60.8	-1.3	-11.9	-8.5	6.4
O=C(NCc1ccco1)c1nc2nc(-c3cccs3)cc(C(F)(F)F)n2n1	-303.3	-6.5	11.6	-32.6	2.4	3.5	3.7	10.3
N=c1oc2ccc3ccccc3c2cc1-c1nnc2n1CCCCC2	-370.1	-34.4	-7.8	-132.4	19.8	-3.3	-14.5	-3.6
CCn1c(Cc2ccc(OC)cc2)nnc1SCC(=O)Nc1cccc(C(=O)OC)c1	9.7	-15.0	4.7	2.1	-3.0	-7.1	-2.8	16.5
Oc1c(/C=N/c2ncn[nH]2)ccc2ccccc12	-132.3	11.1	30.8	-22.7	26.8	1.2	4.3	-14.0
COc1ccc(-n2c(N)c(C(=O)NCC3CCCO3)c3nc4ccccc4nc32)c(OC)c1 (stereo unspecified)	-290.2	68.2*	28.3	-24.4	2.3	43.6	38.5	17.3
CCOc1ccc(C2C(C#N)=C(N)N3C(=C2C#N)Sc2ccccc23)cc1 (stereo unspecified)	-261.3	14.7	16.8	-20.6	-7.0	17.8	-0.9	15.8
Cc1cccc2cc(C#N)c(NCCNS(=O)(=O)c3ccc4c(c3)OCCO4)nc12	-257.9	-1.3	9.9	-65.5	0.4	4.5	12.3	7.2
O=C(c1cc2nc(-c3ccccc3)cc(-c3ccccc3)n2n1)N1CCN(C(=O)c2ccco2)CC1	i	10.1	17.0	-57.6	-4.1	2.6	0.1	14.9
O=C(COc1ccccc1)Nc1cccc2nsnc12	i	23.0	1.4	-18.1	4.3	-2.9	9.9	26.1
O=C(O)c1cccn2c(=O)c3ccccc3nc12	-288.5	-11.7	30.4	-6.9	2.5	-5.8	-3.4	1.1

High-throughput results: PubChem, Sanford-Burnham Center for Chemical Genomics
